Screens deposited in PubChem BioAssay by Johns Hopkins Ion Channel Center.
KCNQ2 pot: potentiators of rat KCNQ2 potassium channel. AID 2239, 2010. CHO-K1 KCNQ2, FluxOR thallium flux fluorescence; stronger effect = higher value. actives 0.54% (n = 310,000). Potassium voltage-gated channel subfamily KQT member 2 (Rattus norvegicus), O88943. B-score at 10 µM;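 active = fluorescence ratio B-score at least 3 SD of library B-scores, with initial fluorescence B-score within 3 SD, cut at about 5.3 in these data; same plate scores as AID 2156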;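 also: B-score of peak minus minimum over baseline fluorescence ratio after K+ and Tl+ stimulus; positive B-score means potentiation of KCNQ2 with more thallium influx and brighter signal; only the inactives scoring about 0 or higher are listed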
Target sequence (O88943 whole entry, looked up): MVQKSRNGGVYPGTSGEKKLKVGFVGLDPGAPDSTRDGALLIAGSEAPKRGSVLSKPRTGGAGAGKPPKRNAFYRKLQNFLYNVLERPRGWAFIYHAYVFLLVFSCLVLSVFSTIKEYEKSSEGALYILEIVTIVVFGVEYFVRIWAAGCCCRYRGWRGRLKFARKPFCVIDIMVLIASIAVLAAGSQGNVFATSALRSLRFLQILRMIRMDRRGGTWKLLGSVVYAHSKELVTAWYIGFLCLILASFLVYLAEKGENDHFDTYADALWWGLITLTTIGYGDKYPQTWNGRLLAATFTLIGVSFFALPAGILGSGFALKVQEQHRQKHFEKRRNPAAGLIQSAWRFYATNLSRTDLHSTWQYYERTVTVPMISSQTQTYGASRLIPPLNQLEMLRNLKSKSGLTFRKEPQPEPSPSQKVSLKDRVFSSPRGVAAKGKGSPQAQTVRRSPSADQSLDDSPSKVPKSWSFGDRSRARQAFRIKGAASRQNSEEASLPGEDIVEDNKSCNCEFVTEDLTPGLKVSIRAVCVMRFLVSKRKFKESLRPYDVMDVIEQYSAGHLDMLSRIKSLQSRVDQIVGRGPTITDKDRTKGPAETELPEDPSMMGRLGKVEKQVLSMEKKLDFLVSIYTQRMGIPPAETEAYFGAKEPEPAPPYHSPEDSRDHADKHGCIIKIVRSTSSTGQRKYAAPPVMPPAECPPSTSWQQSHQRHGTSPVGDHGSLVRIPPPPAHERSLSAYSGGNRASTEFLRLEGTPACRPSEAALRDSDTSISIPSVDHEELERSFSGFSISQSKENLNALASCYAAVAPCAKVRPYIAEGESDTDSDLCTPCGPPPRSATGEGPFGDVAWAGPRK
KCNQ2 pot baseline: also measured in KCNQ2 pot; calls as there; B-score; compound at 10 µM; measured here: initial fluorescence intensity artifact check;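 brightness before thallium and not channel activity; 0 = typical well and far values either way flag optical interference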
* hit, by the source's call. This is a subset, so the mix of outcomes need not match the whole.

How did CC(C)CC(c1nnnn1C(C)C)N1CCN(C(=O)c2ccco2)CC1 (configuration not stated) do in these assays?
KCNQ2 pot: 0.24; KCNQ2 pot baseline: 1.3

What do the screens show for `O=C1NC2(CCC3(CC2)OCCO3)NN1c1ccccc1`?
KCNQ2 pot: 0.16; KCNQ2 pot baseline: 0.46

Results for O=C1c2ccncc2C(=O)N1C1CCCCC1 ?
KCNQ2 pot: 0.03; KCNQ2 pot baseline: 0.01

Results for Cc1noc(C)c1C(=O)Nc1sc(C)c(C)c1C#N ?
KCNQ2 pot: 0.02; KCNQ2 pot baseline: 0.52

How did Cn1cnc2c1c(=O)n(Cc1ccccc1)c(=O)n2C do in these assays?
KCNQ2 pot: 1.3; KCNQ2 pot baseline: 0.42

Results for O=C(CCn1ccc2ccccc21)Nc1ccc(N2CCOCC2)cc1 ?
KCNQ2 pot: 0.03; KCNQ2 pot baseline: -0.05

What do the screens show for `COc1ccc(/C=N/NC(=O)c2nonc2C)cc1`?
KCNQ2 pot: 0.14; KCNQ2 pot baseline: 0.32

What do the screens show for `C1=C(CCNc2ncnc3nc[nH]c23)CCCC1`?
KCNQ2 pot: 0.36; KCNQ2 pot baseline: 0.64

How did COCCNC(=O)c1ccc2c(c1)S(=O)(=O)c1ccccc1C2=O do in these assays?
KCNQ2 pot: 0.94; KCNQ2 pot baseline: -0.68

How did CC12CC(NC(=O)N1CCc1ccccc1)c1ccccc1O2 (configuration not stated) do in these assays?
KCNQ2 pot: 0.45; KCNQ2 pot baseline: -0.09

What do the screens show for `CCNc1oc(-c2ccccc2F)nc1S(=O)(=O)c1ccccc1`?
KCNQ2 pot: 0.53; KCNQ2 pot baseline: 1.6

What do the screens show for `O=Cc1nc(-c2ccc(Cl)cc2)n2ccccc12`?
KCNQ2 pot: 1.8; KCNQ2 pot baseline: 0.5

Results for COCCN(CCOC)C(=S)Nc1cc(S(=O)(=O)N(C)C)ccc1C ?
KCNQ2 pot: 1; KCNQ2 pot baseline: 0.78

What do the screens show for `CCOC(=O)c1cc(C)n(CCCN2CCOCC2)c1C`?
KCNQ2 pot: 1.1; KCNQ2 pot baseline: -1

How did O=C(c1ccccc1)c1cccn1CC(=O)N1CCN(C2CCCCC2)CC1 do in these assays?
KCNQ2 pot: 1.2; KCNQ2 pot baseline: -0.52

Results for COC(=O)c1cnn(-c2ccc(F)cc2F)c1/C=N/NC(N)=S ?
KCNQ2 pot: 0.01; KCNQ2 pot baseline: 1

Results for CC(=O)c1c(C)nc2sc3c(=N)n(N)cnc3c2c1-c1ccc(Cl)cc1 ?
KCNQ2 pot: 0.57; KCNQ2 pot baseline: 0.39

Results for NS(=O)(=O)c1ccc(NC(=O)CCC(=O)N2CCOCC2)cc1 ?
KCNQ2 pot: 0.02; KCNQ2 pot baseline: 2

How did O=C(CCl)Nc1ccccc1C(=O)NCc1ccccc1 do in these assays?
KCNQ2 pot: 0.02; KCNQ2 pot baseline: 1.2

Results for O=C(NC1CCN(C(=O)Nc2cccc(Cl)c2)CC1)C1CCCCC1 ?
KCNQ2 pot: 1.5; KCNQ2 pot baseline: 2.6

What do the screens show for `CCOC(=O)N1CCN(C(=O)c2ccc(SC)cc2OC)CC1`?
KCNQ2 pot: 0.03; KCNQ2 pot baseline: 0.73

How did Cn1nc(C(C)(C)C)cc1C(=O)NNC(=O)c1cccc(Cl)c1 do in these assays?
KCNQ2 pot: 0.07; KCNQ2 pot baseline: 0.83

What do the screens show for `C=CCn1c(O)c(N=NC(=O)c2ccc3c(c2)OCO3)c2ccccc21`?
KCNQ2 pot: 1.4; KCNQ2 pot baseline: -1.2

What do the screens show for `O=C(C1=C(O)C(=O)N(CCOCCO)C1c1cccs1)c1cccs1` (configuration not stated)?
KCNQ2 pot: 2.2; KCNQ2 pot baseline: -2.3

How did CC(=O)OC1CC(C)(C)N(OC(=O)CCCN2C(=O)c3ccccc3C2=O)C(C)(C)C1 do in these assays?
KCNQ2 pot: 0.35; KCNQ2 pot baseline: 0.04

How did Cn1ncc2c(N3CCOCC3)ncnc21 do in these assays?
KCNQ2 pot: 0.82; KCNQ2 pot baseline: -1.4

What do the screens show for `CCCCN1CC(O)=C(c2nc3ccccc3[nH]2)C1=N`?
KCNQ2 pot: 0.28; KCNQ2 pot baseline: -0.13

What do the screens show for `COc1ccccc1NC(=O)Cn1nnc(C(=O)Nc2ccccc2)c1N`?
KCNQ2 pot: 1.6; KCNQ2 pot baseline: -0.1

Results for COc1ccc(NC(=O)CN2C(=O)NC(C)(c3ccc(C)cc3)C2=O)c([N+](=O)[O-])c1 (configuration not stated) ?
KCNQ2 pot: 0.28; KCNQ2 pot baseline: -1.9

What do the screens show for `CC1Cc2cc(/C(O)=C3/C(=O)C(=O)N(CCCn4ccnc4)C3c3ccncc3)ccc2O1` (configuration not stated)?
KCNQ2 pot: 2.8; KCNQ2 pot baseline: -0.06

Of the compounds above, two contain fluorine.
What do the screens show for `CCNc1oc(-c2ccccc2F)nc1S(=O)(=O)c1ccccc1`?
KCNQ2 pot: 0.53; KCNQ2 pot baseline: 1.6

Results for COC(=O)c1cnn(-c2ccc(F)cc2F)c1/C=N/NC(N)=S ?
KCNQ2 pot: 0.01; KCNQ2 pot baseline: 1

Later entries.
Results for COC(=O)c1cc(COc2ccc3c4c(c(=O)oc3c2)CCCC4)c(C)o1 ?
KCNQ2 pot: 0.12; KCNQ2 pot baseline: -0.95

Results for COCC(=O)Nc1cc(C(=O)OC)cc(C(=O)OC)c1 ?
KCNQ2 pot: 1.5; KCNQ2 pot baseline: -0.1

What do the screens show for `O=C(NCc1ccccc1)NC1CC2CCC(C1)N2Cc1ccco1` (configuration not stated)?
KCNQ2 pot: 0.59; KCNQ2 pot baseline: 0.07

Results for CCC(C(=O)OCC(=O)Nc1c(C)n(C)n(-c2ccccc2)c1=O)c1ccccc1 (configuration not stated) ?
KCNQ2 pot: 0.47; KCNQ2 pot baseline: -0.65

How did COc1cc(NC(=O)COC(=O)CCCC2=NS(=O)(=O)c3ccccc3N2)cc(OC)c1 do in these assays?
KCNQ2 pot: 2.3; KCNQ2 pot baseline: -1.1

Results for CN(C)c1ccc(-c2nnc(-c3cccnc3)o2)cc1 ?
KCNQ2 pot: 0.8; KCNQ2 pot baseline: -0.69

How did COc1cccc(NC(=O)Cc2cn(C)c3ccccc23)c1 do in these assays?
KCNQ2 pot: 0.98; KCNQ2 pot baseline: 1.9

Results for CC1=C(C(=O)OCC(Br)(Br)Br)C(c2cccc([N+](=O)[O-])c2)NC(=O)N1CCCC(=O)O (configuration not stated) ?
KCNQ2 pot: 0.19; KCNQ2 pot baseline: 3

What do the screens show for `CCN1CCc2c(C#N)c(N3CCOCC3)nc(NCc3ccccc3)c2C1`?
KCNQ2 pot: 0.02; KCNQ2 pot baseline: -0.29

How did CC(=O)c1ccc(N(CC(=O)NC2CCCC2)C(=O)CNC(=O)c2ccco2)cc1 do in these assays?
KCNQ2 pot: 0.57; KCNQ2 pot baseline: 0.13

Results for [O-][N+]12CCCCC1CCCC2CO (configuration not stated) ?
KCNQ2 pot: 0.46; KCNQ2 pot baseline: -0.02

How did O=C1C2CC=C(Cl)CC2C(=O)N1CCC[n+]1cccc2ccccc21 (configuration not stated) do in these assays?
KCNQ2 pot: 0.84; KCNQ2 pot baseline: 0.69

How did O=C(Nc1nnc(-c2ccco2)o1)c1cccc(N2C(=O)CCC2=O)c1 do in these assays?
KCNQ2 pot: 1.3; KCNQ2 pot baseline: 0.75

How did COc1ccc(-c2nc(CCl)cs2)cc1OC do in these assays?
KCNQ2 pot: 0.47; KCNQ2 pot baseline: -3.1

How did O=C(NC1CCCCCC1)c1c(F)c(F)c(F)c(F)c1F do in these assays?
KCNQ2 pot: 0.34; KCNQ2 pot baseline: 0.2

5 records drawn at random from those above, as already listed:
How did COc1cccc(NC(=O)Cc2cn(C)c3ccccc23)c1 do in these assays?
KCNQ2 pot: 0.98; KCNQ2 pot baseline: 1.9

How did COc1ccc(-c2nc(CCl)cs2)cc1OC do in these assays?
KCNQ2 pot: 0.47; KCNQ2 pot baseline: -3.1

Results for CC1=C(C(=O)OCC(Br)(Br)Br)C(c2cccc([N+](=O)[O-])c2)NC(=O)N1CCCC(=O)O (configuration not stated) ?
KCNQ2 pot: 0.19; KCNQ2 pot baseline: 3

Results for CN(C)c1ccc(-c2nnc(-c3cccnc3)o2)cc1 ?
KCNQ2 pot: 0.8; KCNQ2 pot baseline: -0.69

What do the screens show for `O=C(NCc1ccccc1)NC1CC2CCC(C1)N2Cc1ccco1` (configuration not stated)?
KCNQ2 pot: 0.59; KCNQ2 pot baseline: 0.07

(listing goes on)
How did O=C(/C=C/c1ccccc1)N1CCC(N2CCC(C(=O)N3CCOCC3)CC2)CC1 do in these assays?
KCNQ2 pot: 0.78; KCNQ2 pot baseline: 0.14

What do the screens show for `CC1(C)CC(=O)C(C=Nc2ccc(O)cc2)=C(O)C1`?
KCNQ2 pot: 3.1; KCNQ2 pot baseline: -0.86

What do the screens show for `Cc1ccccc1NC1=NC(C)(C)N=C(N)N1`?
KCNQ2 pot: 0.87; KCNQ2 pot baseline: -0.36

What do the screens show for `COc1cc(Nc2cccc[n+]2C)cc(OC)c1OC`?
KCNQ2 pot: 1.3; KCNQ2 pot baseline: -1.4

Results for O=c1c2c(nc3cc(-c4ccc(F)cc4)[nH]n13)CCC2 ?
KCNQ2 pot: 0.56; KCNQ2 pot baseline: 1.1

How did CN(C)c1ccc(N=Nc2ccc(S(=O)(=O)O)cc2)c2ccccc12 do in these assays?
KCNQ2 pot: 4.1; KCNQ2 pot baseline: -0.02

How did O=C(Nc1ccc(Oc2cccc(C(F)(F)F)c2)nc1)c1cccs1 do in these assays?
KCNQ2 pot: 0.13; KCNQ2 pot baseline: -0.05

How did CN(CC(=O)NCCc1ccccc1)S(=O)(=O)c1cnc[nH]1 do in these assays?
KCNQ2 pot: 0.01; KCNQ2 pot baseline: 0.06

What do the screens show for `CCOC(=O)c1cc2cc(OC)ccc2nc1C`?
KCNQ2 pot: 0.58; KCNQ2 pot baseline: 1.7

How did Cn1c(CO)cnc1SCC(=O)c1ccc(Cl)cc1 do in these assays?
KCNQ2 pot: 0.85; KCNQ2 pot baseline: -0.92

Results for CC(C)NC(=O)CCn1nc(-c2ccc(Cl)cc2)c2ccccc2c1=O ?
KCNQ2 pot: 1.4; KCNQ2 pot baseline: -0.28

How did Cc1ccc(-c2csc(NC(=O)CN3CCOCC3)n2)cc1 do in these assays?
KCNQ2 pot: 1; KCNQ2 pot baseline: 1.3

Results for CCN1CCN(Cc2ccc(NC(=O)CC3Oc4ccc(C)cc4NC3=O)cc2)CC1 (configuration not stated) ?
KCNQ2 pot: 1.8; KCNQ2 pot baseline: 0.1

Results for COC(=O)CCC(=O)OC1(C)C(=O)C=C2C=C(C3CC3)N(c3ccc(CO)cc3)C=C2C1=O (configuration not stated) ?
KCNQ2 pot: 1.4; KCNQ2 pot baseline: 0.04

How did Cn1c(CO)cnc1SCc1ccccc1 do in these assays?
KCNQ2 pot: 1.2; KCNQ2 pot baseline: -0.7

Results for O=C(N/N=C\c1ccc(OCC(=O)N2CCCC2)cc1)C(=O)Nc1ccccc1F ?
KCNQ2 pot: 0.89; KCNQ2 pot baseline: -0.23

How did O=C(NC1CCCCCC1)c1ccc(-n2cnnc2)cc1 do in these assays?
KCNQ2 pot: 0.03; KCNQ2 pot baseline: 2.6

Results for N#CCCCn1c(O)c(N=NC(=O)C(O)c2ccccc2)c2ccccc21 (configuration not stated) ?
KCNQ2 pot: 0.95; KCNQ2 pot baseline: -1.1

What do the screens show for `CCc1ccc(OCC(=O)N(Cc2cccs2)C2CCS(=O)(=O)C2)cc1` (configuration not stated)?
KCNQ2 pot: 0.33; KCNQ2 pot baseline: -0.5

How did CCCOc1ccc(C(=O)O)cc1 do in these assays?
KCNQ2 pot: 0.17; KCNQ2 pot baseline: -0.95

What do the screens show for `Cc1cc(NC(=O)CSc2nc3c(C)c(C)ccc3cc2C)no1`?
KCNQ2 pot: 5.9*; KCNQ2 pot baseline: -0.38*

What do the screens show for `O=c1[nH]c(-c2ccccn2)nc(C(F)(F)F)c1Br`?
KCNQ2 pot: 0.22; KCNQ2 pot baseline: -1.6

How did CCOC(=O)Cc1nnc(NC(=O)C(CC)Sc2nnc3c4ccccc4n(C)c3n2)s1 (configuration not stated) do in these assays?
KCNQ2 pot: 0.44; KCNQ2 pot baseline: -1.4

How did CCN(CC)CCOC(=O)c1ccc(Cl)cc1 do in these assays?
KCNQ2 pot: 0.98; KCNQ2 pot baseline: -1.4

Results for CCOc1ccc(S(=O)(=O)NCCC(=O)NC2=NCCS2)cc1 ?
KCNQ2 pot: 1.8; KCNQ2 pot baseline: 1.2

Results for O=C(O)Cn1cc(C(=O)c2cccs2)c2ccccc21 ?
KCNQ2 pot: 0.84; KCNQ2 pot baseline: 0.47

How did Cc1csc(NC(C)c2nc3cc(C(F)(F)F)ccc3n2CCCO)n1 (configuration not stated) do in these assays?
KCNQ2 pot: 0.44; KCNQ2 pot baseline: -0.6

Results for Nc1nc(NCCOCCO)nc(NCc2ccccc2)c1[N+](=O)[O-] ?
KCNQ2 pot: 0.23; KCNQ2 pot baseline: -1.2

How did O=[N+]([O-])c1ccc(Oc2cccc(Br)c2)c2ccncc12 do in these assays?
KCNQ2 pot: 0.03; KCNQ2 pot baseline: 0.07

Structural class, the entries above containing a CF3 group.
How did O=C(Nc1ccc(Oc2cccc(C(F)(F)F)c2)nc1)c1cccs1 do in these assays?
KCNQ2 pot: 0.13; KCNQ2 pot baseline: -0.05

What do the screens show for `O=c1[nH]c(-c2ccccn2)nc(C(F)(F)F)c1Br`?
KCNQ2 pot: 0.22; KCNQ2 pot baseline: -1.6

How did Cc1csc(NC(C)c2nc3cc(C(F)(F)F)ccc3n2CCCO)n1 (configuration not stated) do in these assays?
KCNQ2 pot: 0.44; KCNQ2 pot baseline: -0.6
